# Compound activity (PubChem BioAssay)
# Cruzain inh Det – qHTS Assay for Promiscuous and Specific Inhibitors of Cruzain (with detergent). 200,000 compounds, 0.43% hits. Cruzipain (Trypanosoma cruzi), P25779. purified cruzain, Z-FR-AMC fluorescence, 0.01% Triton. Potency, µM, for inactives: max response, negative = inhibition, most hits filed as inhibitors; active = well fitted curve in the direction sought with a large enough effect; inconclusive = small, poorly fitted or top-dose-only effect, or another doubt; inactive = no such curve, though single readings can be large; an effect the other way counts as inactive or inconclusive;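 note: plate controls were neutral wells for no effect and buffer without enzyme for full effect; nearly all actives have a fitted effect of over 40% in size; top concentration of the series not given in the record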
# Target sequence (P25779 123-467 limits assumed): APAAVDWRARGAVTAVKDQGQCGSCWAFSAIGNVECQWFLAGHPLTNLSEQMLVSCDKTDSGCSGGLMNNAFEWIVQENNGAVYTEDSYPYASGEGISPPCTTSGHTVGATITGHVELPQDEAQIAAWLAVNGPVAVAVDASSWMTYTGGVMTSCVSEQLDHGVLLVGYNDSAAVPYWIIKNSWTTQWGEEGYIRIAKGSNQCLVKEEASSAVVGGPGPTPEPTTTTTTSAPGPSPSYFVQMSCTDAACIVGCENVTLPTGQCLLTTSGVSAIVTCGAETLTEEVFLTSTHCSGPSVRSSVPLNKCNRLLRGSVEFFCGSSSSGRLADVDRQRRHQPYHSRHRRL
#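 Sodium acetate buffer (100 mM, pH 5.5) containing 5 mM DTT and 0.01% Triton X-100 hosted 1.5 nM cruzain and test compound for 15 min at room temperature. Cleavage of 2 uM Z-FR-AMC was then tracked by fluorescence.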
# Marburg entry inh – qHTS for inhibitors of binding or entry into cells for Marburg Virus | Marburg virus pseudotyped entry inhibition, cell reporter; control for the full effect not named in the record; about a third of the inactives were read at about 46 µM | Potency, µM (titrated, usually from 37.8 µM), inactives show top-dose activity change, negative = inhibition, hits mostly inhibitors | 300,000 compounds, 1.8% hits | AID 540276, 2011; active = well fitted inhibition curve with a large enough effect; inconclusive = small, poorly fitted or top-dose-only effect, or effect the other way; inactive = flat fitted curve, though single readings scatter; tested in HEK293 cells; about a fifth of its hits are not listed in these tables; note: % is set by controls: 0 for no effect and ±100 for the full control effect; luciferase read-out
# SARS PLpro yeast – qHTS of Yeast-based Assay for SARS-CoV PLP; Potency, µM (doses to about 32.9 µM), without a hit: at the top dose activity, positive = growth rescue; S. cerevisiae expressing SARS-CoV PLpro, growth rescue; control for the full effect not named in the record; 330,000 compounds, 0.19% hits; note: 0% is about no effect; nearly all actives have a fitted effect of over 55% in size; growth read by luminescence after 48 h
# Cruzain inh noDet – qHTS Assay for Promiscuous and Specific Inhibitors of Cruzain (without detergent). Cruzipain (Trypanosoma cruzi), P25779. purified cruzain, Z-FR-AMC fluorescence, no detergent. Potency, µM, for inactives: max response, negative = inhibition, most hits filed as inhibitors. 200,000 compounds, 2.3% hits; active = well fitted curve in the direction sought with a large enough effect; inconclusive = small, poorly fitted or top-dose-only effect, or another doubt; inactive = no such curve, though single readings can be large; an effect the other way counts as inactive or inconclusive;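 note: plate controls were enzyme without inhibitor for no effect and buffer without enzyme for full effect; nearly all actives have a fitted effect of over 40% in size; top concentration of the series not given in the record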
#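 Detergent-free condition (0.00005% Triton X-100) in acetate buffer pH 5.5 with DTT. 1.5 nM enzyme and compound were pre-mixed 15 min, then 2 uM Z-FR-AMC substrate added; reaction progress from fluorescence change between first and third reads (60 s).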
# Lassa entry inh – qHTS for Inhibitors of binding or entry into cells for Lassa Virus; Lassa virus pseudotype entry inhibition, cell reporter; control for the full effect not named in the record; Potency, µM (top dose mostly 37.9 µM), for inactives: at the top dose activity change, negative = inhibition, actives largely listed as inhibitors; 300,000 compounds, 1.2% hits; active means well fitted inhibition curve with a large enough effect; inconclusive means small, poorly fitted or top-dose-only effect, or effect the other way; inactive means flat fitted curve, though single readings scatter; tested in HEK293 cells; note: % is set by controls: 0 for no effect and ±100 for the full control effect; nearly all actives have a fitted effect of over 50% in size; luciferase read-out
# NS1 inh – qHTS Assay for Inhibitors of Influenza NS1 Protein Function; AID 2326, 2010; 270,000 compounds, 0.4% hits; Potency, µM (highest dose often 46.1 µM), for inactives: top-dose activity, positive = more growth; S. cerevisiae slowed by influenza A NS1, growth recovery by OD600; note: actives are rising curves; nearly all actives have a fitted effect of over 50% in size
#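 S. cerevisiae expressing influenza A NS1, grown in glucose, washed, then diluted 1:100 into pH 6.0 -URA galactose medium with 23 nl compound. Growth recovery read as OD600; NS1-free strain serves as control.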
# 2A StopGo – High Throughput Screening for Foot and Mouth Disease Virus Antivirals; 410,000 compounds, 1.2% hits; AID 1159524, 2015; human cells with a luciferase reporter of 2A StopGo recoding; control for the full effect not named in the record; Potency, µM (top dose mostly 57.9 µM), for inactives: at the top dose signal change, negative = less light; active = well fitted falling curve with a large enough effect; inconclusive = small, poorly fitted or top-dose-only effect; inactive = no such curve, though single readings can be large or run the other way; tested in HEK293T cells; note: % is set by controls: 0 for no effect and ±100 for the full control effect; nearly all actives have a fitted effect of over 45% in size; luciferase light after 4 h
# RE007 growth inh – qHTS Assay for Inhibitors of the HIV-1 protein Vpr. 360,000 compounds, 0.21% hits. AID 651644, 2012. S. pombe RE007 Vpr strain, BacTiter-Glo ATP luminescence, 24 h; control for the full effect not named in the record. Potency, µM (highest dose often 92.2 µM), without a hit: at the highest dose activity change, negative = less growth; active = well fitted falling curve with a large enough effect; inconclusive = small, poorly fitted or top-dose-only effect; inactive = no such curve, though single readings can be large or run the other way;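 note: % is set by controls: 0 for no effect and ±100 for the full control effect; nearly all actives have a fitted effect of over 50% in size; the assay follows cell death caused by Vpr and the record does not say whether a fall means rescue or toxicity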
#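 Fission yeast RE007 carrying one integrated HIV-1 vpr copy, seeded at OD 0.01 in PMG+AL medium with 23 nL pinned compound. Grown 24 h at 30 degrees; viability read by BacTiter-Glo luminescence after 5 min.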
# An asterisk follows results filed as active; ? = inconclusive; · = no result given; [ ] = remark or other dose. Unless noted, calls come from the whole dose curve; as a rule, active means well fitted rising curve with a large enough effect; inconclusive means small, poorly fitted or top-dose-only effect; inactive means no such curve, though single readings can be large or run the other way. Potency is the fitted concentration of half-maximal effect.
SMILES,Cruzain inh Det,Marburg entry inh,SARS PLpro yeast,Cruzain inh noDet,Lassa entry inh,NS1 inh,2A StopGo,RE007 growth inh
Cc1oc(-c2ccccc2F)nc1CS(=O)CC(=O)NC1CCCC1 (stereo not drawn),·,2%[46.1 µM],-1%,·,13%[46.1 µM],20%,25%,-10%
CCOC(=O)C1CCN(C(=S)NC2CCCC2)CC1,·,-12%[46.1 µM],-1%,·,9%[46.1 µM],·,8%,5%
Cc1cc(C)cc(NC(=O)CCCCCN2C(=O)[C@@H]3Cc4ccccc4CN3C2=O)c1,·,·,2%,·,·,-44%,-21%,27%
CC(=O)Nc1ccc2c(c1)Cc1c-2cc(Cl)c(NC(C)=O)c1Cl,·,4%,·,·,-9%,·,21%,2%
CN(C(=O)c1cccc(N2C(=O)C3C4C=CC(C4)C3C2=O)c1)C1CCCCC1 (stereo not drawn),·,·,-1%,·,·,8%,5%,9%
COCC(=O)NC1(c2nnnn2CCOC(=O)Nc2ccc(Cl)cc2)CCCCC1,·,4%[46.1 µM],-2%,·,-7%,·,9%,13%
CC(=O)c1ccc(NC(=O)COC(=O)CCc2ccc(S(=O)(=O)N3CCOCC3)cc2)cc1,·,-12%[46.1 µM],1%,·,4%,-4%,-8%,-2%
CN(c1nc2c(c(=O)n(C)c(=O)n2C)n1CC(=O)c1ccccc1)C1CCCCC1,2.1%,-2%,4%,?,-22%,-42%,?,-11%
Cc1cc(C(=O)OC(C(=O)Nc2cccc(C(F)(F)F)c2)c2ccccc2)c(C)o1 (stereo not drawn),-3.9%,?,1%,-4%,?,5%,-15%,-2%
COC(=O)c1ccc(OCCOc2ccccc2C)cc1,·,2%,17%,·,22%,-4%,25%,11%
COC(=O)Cn1cc(C#N)c2ccccc21,-1.5%,10%,-3%,-8%,8%,6%[9.22 µM],-1%,-15%
CC(=O)N1N=C(c2ccc(C)cc2)OC1c1cccnc1 (stereo not drawn),·,5%,-1%,·,-13%,·,51%[activator],-11%
COc1cnn(-c2ccc(C)cc2)c(=O)c1Cl,·,?,2%,·,?,·,33%[activator],20%
CC(=O)OC1=C(C(C)=O)N(Cc2ccccc2)S(=O)(=O)c2ccccc21,-7.2%,?,·,-16%,1%[46.1 µM],·,-17%,·
COc1ccccc1-c1ccc(/C=C2/C=C(CC(C)C)OC2=O)o1,-24%,0%,-2%,32µM*,-3%,-18%,-6%,-26%
CCOc1ccc(C(=O)NC2C(=O)N3C(C(=O)O)=C(COC(C)=O)CSC23)cc1OCC (stereo not drawn),·,2%,-2%,·,-2%,·,-7%,-24%
CCc1nccn1CCC(=O)NC1CC(C)(C)Cc2c1cnn2-c1ccc(OC)cc1 (stereo not drawn),·,·,-4%,·,·,-2%,-4%,-3%
CCc1ccc(CN(Cc2ccco2)c2cnc(S(C)(=O)=O)nc2C(=O)Nc2ccc(C)c(Cl)c2)cc1,-1.2%,?,·,?,7%[46.1 µM],·,-4%,·
CCOC(=O)C1=C(C)Nc2ccccc2N=C1NC(=O)C(c1ccccc1)c1ccccc1,·,?,0%,·,-24%,6%,-21%,4%
Cc1ccc(-c2c(C)sc(=NC(=O)c3ccco3)n2C)cc1,1.0%,-2%,-20%,4%,11%,-64%,·,3%
COc1ccc(-c2noc(CN3CCN(C(=O)c4cccs4)CC3)n2)c(OC)c1OC,·,·,-3%,·,·,-2%,-20%,-9%
O=C(c1cc(COc2ccc(F)c(F)c2)on1)N1CCSCC1,·,-1%,-2%,·,?,-14%,16%,0%
Cc1ccc(NC(=O)CNC(=O)c2cccs2)cc1S(=O)(=O)Nc1ccc(Cl)cc1,-3.3%,?,22%,-9%,?,8%,57%[activator],-6%
COc1ccc(C(=O)Nc2cc(C)nn2-c2cccc(F)c2)cc1OC,·,·,-1%,·,·,1%,-20%,2%
Oc1ccccc1N1CCN(c2ncnc3scc(-c4ccccc4)c23)CC1,·,?,-6%,·,-25%[46.1 µM],-4%,-19%,8%
Cc1cc(C(=O)NNS(=O)(=O)c2cccc(Cl)c2)nn1C(C)(C)C,·,·,0%,·,·,0%,6%,7%
CCCCN1C(=O)C2C(c3ccc(OC)cc3O)NC(CC(C)C)(C(=O)O)C2C1=O (stereo not drawn),1.0%,·,7%,-8%,·,-7%,-9%,9%
COCCn1c(C)cc(/C=N/NC(=O)c2cccnc2)c1C,·,?,1%,·,·,8%,50%[activator],6%
O=C(NCCc1ccccc1)C(=O)NCCC1CCCCN1S(=O)(=O)c1ccccc1 (stereo not drawn),·,-27%,-2%,·,?,·,0%,-15%
Cc1ccc2nc(NC(=S)NC(=O)c3cccs3)sc2c1,1.7%,26%,?,7%,?,-7%,33%[activator],-13%
CN(C(=O)c1ccccn1)c1nnc(-c2cccnc2)s1,-0.1%,?,-8%,0%,2%,0%,56%[activator],-9%
CC(C)(C)n1nnnc1C(c1cccnc1)N1CCN(C2CCCCC2)CC1 (stereo not drawn),4.7%,-28%,8%,1%,?,-1%,·,-5%
Cc1ccc2nc(SCC(=O)Nc3ccc4c(c3)OCO4)nc(=O)n2c1,·,7%[46.1 µM],-14%,·,23%,·,-5%,11%
CCC1CCCCN1C(=O)c1c(-c2ccccc2)noc1C (stereo not drawn),7.5%,2%,26%,-7%,-5%,12%,-10%,-8%
Cc1ccc(C(=O)O)cc1-c1ccc(/C=C2\SC(=O)N(CC(=O)Nc3ccc4c(c3)OCO4)C2=O)o1,·,2%,5%,·,0%,24%,-11%,-6%
O=C1N(Cc2cccnc2)C[C@@H]2C[C@@H](c3cccc(OC4CCCC4)c3)N3CCC[C@@]123,·,21%[46.1 µM],1%,·,3%[46.1 µM],-2%,13%,6%
Clc1cccc(CSc2ccc(-c3cccnc3)nn2)c1,·,-4%[46.1 µM],-9%,·,-9%[46.1 µM],·,-1%,4%
CN(C)S(=O)(=O)c1cccc(NC(=O)CSc2nncn2C)c1,·,10%[46.1 µM],1%,·,23%,-2%,-5%,7%
CC(C)CCNC(=O)c1ccc2c(c1)N(Cc1ccccc1)C(=O)CS2=O (stereo not drawn),1.5%,·,-2%,8%,·,25%,-12%,18%
CCCSc1ncc(Cl)c(C(=O)Nc2ccc(S(=O)(=O)N(C)c3ccccc3)cc2)n1,-5.1%,2%[46.1 µM],·,?,-25%[46.1 µM],·,1%,·
COc1ccc(NC(=O)N2CCN3CCCCC3C2)cc1OC (stereo not drawn),-1.0%,·,·,4%,23%[46.1 µM],·,-10%,·
Cc1cccc(NC(=O)C2CCN(S(=O)(=O)c3c(C)c(C)cc(C)c3C)CC2)n1,·,?,0%,·,?,·,?,-8%
COC(=O)c1ccccc1NC(=O)N1CSC[C@H]1C(=O)OC,-0.7%,-2%,2%,-3%,26%,-34%,-27%,0%
COc1ccccc1CCC(=O)NCCCn1ccc2ccccc21,·,-10%[46.1 µM],0%,·,?,7%,-3%,6%
CC(=O)Nc1cc(C(C)C)c(O)c(C(C)C)c1,-1.1%,2%,10%,4%,8%,6%,4%,4%
Cc1nc2sc(C(c3cccs3)N3CCC4(CC3)OCCO4)c(O)n2n1 (stereo not drawn),-3.3%,?,-3%,1%,1%,6%,16%,9%
OCC1(Cc2ccccc2)CCN(Cc2cnc(-c3cccc4ccccc34)nc2)CC1,·,?,-2%,·,14%[46.1 µM],5%,?,8%
Cc1cc(-c2nn(-c3ccccc3F)cc2CN(C)CC(O)CO)c(C)s1 (stereo not drawn),·,·,1%,·,·,10%,-7%,8%
Cc1cc(F)ccc1S(=O)(=O)N1CCCOC1CNC(=O)C(=O)NCCc1ccccc1 (stereo not drawn),·,6%,?,·,-6%,-7%,-1%,-4%
CCOC(=O)c1[nH]ncc1CN1CCCC(C(=O)c2ccc(C(C)(C)C)cc2)C1 (stereo not drawn),·,·,0%,·,·,-4%,?,-4%
CC1(C)CC(=O)c2cc(NC(=O)c3ccccc3)c(=O)oc2C1,-3.4%,14%,8%,-10%,?,-8%,83%[activator],3%
C/C(=N\NC(=O)COc1ccc(C(C)(C)C)cc1)c1ccc2c(c1)OCCO2,-12%,5%,-17%,5%,?,1%,-21%,7%
C/C(=N/NC(=O)CNC(=O)c1cccc(F)c1)c1ccc2c(c1)CCCC2,·,-20%[46.1 µM],1%,·,-11%,-2%,4%,4%
CCOc1ccccc1NC(=O)CCS(=O)(=O)c1cccc2nonc12,3.0%,1%,9%,-6%,?,-4%,0%,8%
CC(=O)c1cccc(NC(=O)C(=O)c2cn(CC(=O)N3CCCCC3)c3ccccc23)c1,·,-8%,-2%,·,-22%,·,9%,-28%
CC(C)c1nn2c(N)c(/C=C3\C=Nc4ccccc43)c(=O)nc2s1,·,1%,1%,·,-26%,-16%,-6%,1%
O=C(CCN1C(=O)C2C3CCC(C3)C2C1=O)OCC(=O)c1ccc(Cl)cc1 (stereo not drawn),·,·,-2%,·,·,-61%,-18%,9%
COc1cccc(C(=O)NCCS(=O)(=O)NCc2cccnc2)c1,·,?,4%,·,19%,·,3%,-19%
Cc1cccc(/C(N)=N/OC(=O)c2ccc(Br)o2)c1,-2.8%,9%,-61%,12%,1%,-19%,49%[activator],?
Cc1cc(OCC(=O)NNC(=S)NC(=O)c2ccc(Br)o2)ccc1Cl,·,·,-7%,·,·,-31%,6%,4%
CC(=O)Nc1ccc(S(=O)(=O)Nc2cccc(-n3c(C)nc4ccccc4c3=O)c2)cc1,·,4%,-4%,·,11%,·,-11%,2%

# Random draw from the library, and some 4.5% of all compounds hit somewhere here.
